# Compound activity deposited in PubChem by National Center for Advancing Translational Sciences (NCATS).
# Lamin A splicing: changes lamin A minigene splicing in HeLa cells; AID 1487; 200,000 compounds, 0.01% hits; Potency, µM (titrated, usually from 46.1 µM), inactives show at the top dose ratio change, negative = inhibition, usual class: inhibitors; HeLa LMNA splicing GFP/RFP minigene ratio, 48 h; active means well fitted inhibition curve with a large enough effect in the signal ratio, with a control signal flat, not every such curve was filed as active; inconclusive means small, poorly fitted or top-dose-only effect, or effect the other way, or a change in a side signal; the % refers to the signal ratio; further: potency means the concentration at half of the fitted maximal effect; on the % scale 0 is the no-effect control and ±100 the full control effect
#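 Read-out is the ratio of GFP to DsRed2 object intensity, acquired by 488 nm laser-scanning cytometry on HeLa lamin A-EGFP minigene reporter cells. Compound incubation 48 hrs at 37 °C in Opti-MEM with 2% FBS; DMSO 0.5% final.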
# SMN2 splice enh: enhancers of SMN2 splice variant expression | Potency, µM (series often up to 46.1 µM), inactives show at the highest dose activity change, positive = activation, usual class: activators | HEK293 SMN2-luciferase splicing reporter, luminescence, 30-36 h | 210,000 compounds, 2.8% hits; further: potency means the concentration at half of the fitted maximal effect; % of control where 0% means no effect; nearly all actives have a fitted effect of over 55% in size
#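 HEK293 cells carry an SMN2 […]–luciferase reporter in which exon 7 inclusion puts luciferase in frame. Cells were plated 10-12 h before compound addition, then incubated 30-36 h at 37C. ONE-Glo luminescence was read; sodium butyrate at 4.5 mM final served as control.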
# IMPase Li inh: membrane-permeable IMPase blocker, potentiated with lithium; AID 1457; 210,000 compounds, 0.35% hits; Potency, µM (top dose mostly 59.4 µM), without a hit: at the highest dose activity, negative = IMPase inhibition, actives largely listed as inhibitors; CHO-M1 cells, IP1 TR-FRET (IP-One), carbachol + lithium;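 further: IP1 builds up when IMPase is blocked and the TR-FRET signal falls; potency means the concentration at half of the fitted maximal effect; plate controls were basal vehicle for no effect and high inhibitor control for full effect; nearly all actives have a fitted effect of over 50% in size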
#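 CHO cells stably expressing M1 receptor (2000/well) were cultured 16–30 h, then exposed to compounds with a small lithium addition for 30 min at 37C. IP1 was measured by TR-FRET competition; AC50 from Hill fits.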
# CBFb RUNX1 block: blocks binding between human CBF-beta and RUNX1; AlphaScreen CBFb-His/RUNX1-biotin binding, biochemical; Potency, µM (series often up to 59.8 µM), without a hit: top-dose activity, negative = inhibition, actives largely listed as inhibitors; 230,000 tested, under 10 active; AID 1477; further: % of control where 0% means no effect
# Target sequence (Q01196 whole entry, looked up): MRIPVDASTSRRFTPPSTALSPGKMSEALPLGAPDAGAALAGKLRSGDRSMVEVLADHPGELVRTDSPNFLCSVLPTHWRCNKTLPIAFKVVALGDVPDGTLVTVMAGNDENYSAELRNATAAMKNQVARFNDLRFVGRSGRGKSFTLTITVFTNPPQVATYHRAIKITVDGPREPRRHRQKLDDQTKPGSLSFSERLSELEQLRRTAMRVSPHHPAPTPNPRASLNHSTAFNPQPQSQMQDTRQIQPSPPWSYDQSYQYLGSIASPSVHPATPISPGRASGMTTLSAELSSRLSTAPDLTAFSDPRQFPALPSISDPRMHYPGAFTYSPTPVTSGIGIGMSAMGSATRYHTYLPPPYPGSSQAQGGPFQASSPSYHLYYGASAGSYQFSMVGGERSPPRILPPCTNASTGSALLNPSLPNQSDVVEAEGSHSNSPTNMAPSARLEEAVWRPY
# Target sequence (Q13951 whole entry, looked up): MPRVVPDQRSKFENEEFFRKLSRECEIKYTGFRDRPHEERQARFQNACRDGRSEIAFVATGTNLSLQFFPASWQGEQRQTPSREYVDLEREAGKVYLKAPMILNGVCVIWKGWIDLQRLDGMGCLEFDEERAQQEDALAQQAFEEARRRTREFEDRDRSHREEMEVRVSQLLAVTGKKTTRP
#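 AlphaScreen binding: CBFb-His and RUNX1-biotin (30 nM each) preincubated 20 min, compound added for 15 min, then nickel and streptavidin beads for 90 min, all at room temperature. Disruption of the interaction by any mechanism counts as activity.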
# Numbers without * were called inactive; u = inconclusive; x = no result given; & = joins results of further samples; [ ] = dose if it differs, or a comment. Unless noted, the call rests on the fitted dose curve; in most records, active means well fitted curve in the direction sought with a large enough effect; inconclusive means small, poorly fitted or top-dose-only effect, or another doubt; inactive means no such curve, though single readings can be large; an effect the other way counts as inactive or inconclusive. Some of the compounds tested. The share of hits here may be higher or lower than overall.
compound	Lamin A splicing	SMN2 splice enh	IMPase Li inh	CBFb RUNX1 block
COc1ccc(OC)c(C(O)CNC(=O)CN)c1 (centres undefined)	x	-6%	8%	4%
CC(=O)OCC(=O)[C@@]12OC(C)(C)O[C@@H]1C[C@H]1[C@@H]3C[C@H](F)C4=CC(=O)C=C[C@]4(C)[C@@]3(F)[C@@H](O)C[C@@]12C	u	-21%	5%	-2%
CCCCc1nc(Cl)c(CO)n1Cc1ccc(-c2ccccc2-c2nn[nH]n2)cc1	u	0%	3%	7%
CC1(C)OC2CC3C4CC(F)C5=CC(=O)C=CC5(C)C4C(O)CC3(C)[C@]2(C(=O)CO)O1 (some centres undefined)	x	4%	17%	12%
COC1C[C@@H](O[C@@H]2C(C)C(=O)OC(C)C(C)[C@H](OC(C)=O)C(C)C(=O)[C@@]3(CO3)CC(C)C(OC3OC(C)CC(N(C)C)[C@H]3OC(C)=O)C2C)OC(C)[C@@H]1OC(C)=O (some centres undefined)	x	-5%	15%	10%
Nc1ncnc2c1ncn2[C@@H]1O[C@H](COP(=O)(O)O)[C@@H](O)[C@H]1O	x	-6%	-24%	13%
O=C1N=C(O)CN1/N=C/c1ccc(-c2ccc([N+](=O)[O-])cc2)o1	-23%	-18%	-7%	3%
O=c1oc2ccccc2cc1-c1cn2ccccc2n1	u	x	-3%	23%
C[C@@H]1C[C@@H]2[C@H]3CCC4=CC(=O)C=C[C@]4(C)[C@]3(F)[C@@H](O)C[C@]2(C)[C@@]1(O)C(=O)CO	u	-6%[20.6 µM]	-5%	-2%[21.7 µM]
CCC(CO)NCCNC(CC)CO (centres undefined)	u	0%&-1%	-14%[38.3 µM]	5%&3%
CO[C@@H]1C[C@H](O[C@H]2[C@@H](C)[C@H](O[C@@H]3O[C@@H](C)C[C@@H](N(C)C)[C@@H]3OC(C)=O)[C@H](C)C[C@]3(CO3)C(=O)[C@H](C)[C@H](OC(C)=O)[C@H](C)[C@H](C)OC(=O)[C@@H]2C)O[C@H](C)[C@@H]1OC(C)=O	u	-8%[20.6 µM]	3%	0%[21.7 µM]
CC[C@H]1OC(=O)C[C@@H](O)[C@H](C)[C@@H](O[C@@H]2O[C@H](C)C[C@H](N(C)C)[C@H]2O)[C@@H](CC=O)C[C@@H](C)C(=O)C=C[C@]2(C)O[C@H]2[C@@H]1C	x	x	x	17%
Nc1ncnc2c1ncn2[C@@H]1O[C@H](COP(=O)(O)O)[C@@H](O)[C@@H]1O	u	-7%[20.6 µM]	1%	1%[21.7 µM]
CC1(C)S[C@@H]2[C@H](NC(=O)[C@H](C(=O)O)c3ccsc3)C(=O)N2[C@H]1C(=O)O	-10%&5%	-22%	0%&7%	2%
C#C[C@]1(OC(C)=O)CC[C@H]2[C@@H]3CCC4=C[C@@H](OC(C)=O)CC[C@@H]4[C@H]3CC[C@@]21C	u	x	x	x
CC[C@H](CO)NCCN[C@H](CC)CO	-7%	-39%[inhibitor]	4%	10%
CCN(CC)Cc1cc(Nc2ccnc3cc(Cl)ccc23)ccc1O	u	-7%[20.6 µM]	9%	-4%[21.7 µM]

# For convenience, ten of the compounds above.
compound	Lamin A splicing	SMN2 splice enh	IMPase Li inh	CBFb RUNX1 block
O=c1oc2ccccc2cc1-c1cn2ccccc2n1	u	x	-3%	23%
C[C@@H]1C[C@@H]2[C@H]3CCC4=CC(=O)C=C[C@]4(C)[C@]3(F)[C@@H](O)C[C@]2(C)[C@@]1(O)C(=O)CO	u	-6%[20.6 µM]	-5%	-2%[21.7 µM]
CCC(CO)NCCNC(CC)CO (centres undefined)	u	0%&-1%	-14%[38.3 µM]	5%&3%
CO[C@@H]1C[C@H](O[C@H]2[C@@H](C)[C@H](O[C@@H]3O[C@@H](C)C[C@@H](N(C)C)[C@@H]3OC(C)=O)[C@H](C)C[C@]3(CO3)C(=O)[C@H](C)[C@H](OC(C)=O)[C@H](C)[C@H](C)OC(=O)[C@@H]2C)O[C@H](C)[C@@H]1OC(C)=O	u	-8%[20.6 µM]	3%	0%[21.7 µM]
CC[C@H]1OC(=O)C[C@@H](O)[C@H](C)[C@@H](O[C@@H]2O[C@H](C)C[C@H](N(C)C)[C@H]2O)[C@@H](CC=O)C[C@@H](C)C(=O)C=C[C@]2(C)O[C@H]2[C@@H]1C	x	x	x	17%
Nc1ncnc2c1ncn2[C@@H]1O[C@H](COP(=O)(O)O)[C@@H](O)[C@@H]1O	u	-7%[20.6 µM]	1%	1%[21.7 µM]
CC1(C)S[C@@H]2[C@H](NC(=O)[C@H](C(=O)O)c3ccsc3)C(=O)N2[C@H]1C(=O)O	-10%&5%	-22%	0%&7%	2%
C#C[C@]1(OC(C)=O)CC[C@H]2[C@@H]3CCC4=C[C@@H](OC(C)=O)CC[C@@H]4[C@H]3CC[C@@]21C	u	x	x	x
CC[C@H](CO)NCCN[C@H](CC)CO	-7%	-39%[inhibitor]	4%	10%
CCN(CC)Cc1cc(Nc2ccnc3cc(Cl)ccc23)ccc1O	u	-7%[20.6 µM]	9%	-4%[21.7 µM]
